Screening results as filed in PubChem BioAssay.
CSC inhib = blocks cancer stem cells; cancer stem cell-like cells viability, luminescence; inhibition, % at 7.5 µM; 1.1% of 300,000 active; AID 2717;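 active = mean at 75% or more and at least half the replicates too; inconclusive = mean and replicates disagree; tested in HMLE shEcad cells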;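 note: 0% = median of negative and 100% = median of positive control wells; the first replicate is given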
MT1-MMP act inh = MT1-MMP (human) activation inhibition; HT1080 RFP-PRO-GFP cells, GFP/RFP ratio fluorescence, overnight; percent of plate control window, DMSO zero; GFP/RFP ratio change, % at 20 µM; 0.061% of 360,000 active; AID 651647;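 active = GFP/RFP ratio change of at least 30% with cell ATP level not reduced by more than half and red fluorescence within 50% of control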; note: strong numbers were not always called active
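system = RFP-PRO-GFP reporter HT1080 cells | dosing = 20 µM single dose, 1% DMSO | timing = overnight cell settling, then overnight compound exposure, 37 °C, 5% CO2 | read-out basis = GFP/RFP fluorescence ratio | controls = DMSO and RFP-L50D-GFP cell wells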
Env fusion inh = blocks HIV Env-driven cell-cell fusion; HeLa-JRFL Env/CEM21 cell fusion, luciferase; inhibition, % at 12.3 µM; 1.1% of 360,000 active; AID 651610;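 active = mean replicate inhibition score of at least 50 and every replicate individually at or above 50; inconclusive = only one of the two criteria met; inactive = mean below 50 and not all replicates reaching 50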;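 note: 0% = plate neutral controls and 100% = maraviroc near 300 nM; one replicate is shown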
eIF4H inh = inhibitors of RNA binding by human eIF4H. eIF4H fluorescence polarization binding assay. inhibition, % at 35 µM. 0.94% of 290,000 active;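 active = 50% or more with normal probe brightness, or confirmed in later tests; inconclusive = above 50% with abnormal brightness, or retests that disagree; inactive = below 50% or failed in later tests; about a fifth of its hits are not listed in these tables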;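 note: calls also rest on retests at 20 µM and on dose response follow-up; 0% = protein and probe with vehicle and 100% = probe without protein; strong numbers were not always called active; many hits fall short of the cut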
UUG fidelity = yeast start codon fidelity modulation; S. cerevisiae UUG-firefly luciferase reporter, luminescence/redox ratio; AID 602363; activity score, % at 18.7 µM; 0.13% of 350,000 active;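 active = replicate mean at a twofold rise or more, about +100% in these data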;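 note: firefly luciferase made from a UUG start codon reports start codon fidelity; reporter light over untreated wells divided by growth signal over untreated wells; some hits fall short of that in this replicate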
PABP FP inh = blocks human PABP binding to poly(A) RNA. P11940. fluorescence polarization. inhibition, % at 35 µM. 1% of 290,000 active. AID 2014;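 active = 50% or more with normal probe brightness, or confirmed in later tests; inconclusive = above 50% with abnormal brightness, or retests that disagree; inactive = below 50% or failed in later tests; about a fifth of its hits are not listed in these tables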;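 note: calls also rest on retests at 20 µM and on dose response follow-up; controls were probe without protein and protein plus probe with vehicle; some compounds called inactive have numbers as strong as hits; many hits fall short of the cut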
Target sequence (P11940 whole entry, looked up): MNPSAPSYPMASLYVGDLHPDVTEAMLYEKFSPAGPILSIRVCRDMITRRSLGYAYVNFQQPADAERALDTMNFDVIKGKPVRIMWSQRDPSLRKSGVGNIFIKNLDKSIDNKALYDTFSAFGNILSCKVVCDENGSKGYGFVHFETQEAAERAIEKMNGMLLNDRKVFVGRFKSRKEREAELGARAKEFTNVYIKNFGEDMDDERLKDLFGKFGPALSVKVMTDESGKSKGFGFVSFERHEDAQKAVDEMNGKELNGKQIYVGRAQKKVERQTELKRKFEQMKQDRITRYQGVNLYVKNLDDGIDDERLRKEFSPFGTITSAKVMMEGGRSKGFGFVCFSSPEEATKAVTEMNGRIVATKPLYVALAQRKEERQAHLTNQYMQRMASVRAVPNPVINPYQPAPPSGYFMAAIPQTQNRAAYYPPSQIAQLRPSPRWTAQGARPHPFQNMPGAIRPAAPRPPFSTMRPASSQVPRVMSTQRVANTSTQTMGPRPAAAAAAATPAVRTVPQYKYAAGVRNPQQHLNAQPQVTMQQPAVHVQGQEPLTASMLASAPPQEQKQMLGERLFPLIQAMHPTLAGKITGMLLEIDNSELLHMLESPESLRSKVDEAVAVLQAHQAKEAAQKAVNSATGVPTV
Rce1 inh = blocks yeast Ras-converting enzyme; AID 2563; calls only; yeast membranes, quenched prenylated peptide cleavage fluorescence; Q03530; 0.27% of 290,000 active;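 active = fall in fluorescence gain of 50% or more versus controls, with final raw signal at or below 3038400; inconclusive = same 50% fall but final raw signal above 3038400; inactive = fall in fluorescence gain under 50%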;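 note: plate controls were neutral control wells for no effect and wells lacking membranes for full effect; tested at 10 µM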
eIF4H inh retest = also measured in eIF4H inh; calls as there; inhibition, %; compound at 20 µM; confirmation average;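 mean of two retest wells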
PABP FP inh retest = second read-out of PABP FP inh, no call of its own (marks repeat the call); inhibition, %; compound at 20 µM; confirmation repeats;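 mean of two retest wells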
MT1-MMP act inh RFP = second read-out of MT1-MMP act inh, no call of its own (marks repeat the call); RFP signal change, %; measured here: RFP expression control read;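 0 = vehicle wells; hits needed this value within 50% of zero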
* marks the source's active call; other numbers are inactive results; i = inactive; ? = inconclusive; · = not tested or not shown. Some of the compounds tested (hit frequency here may not be typical).

SMILES | CSC inhib | MT1-MMP act inh | MT1-MMP act inh RFP | Env fusion inh | eIF4H inh | UUG fidelity | PABP FP inh | Rce1 inh | others
CCc1sc(C(=O)NNC(=O)c2cncc(Br)c2)cc1C | -7 | 7 | 8 | -4 | · | 2 | · | ·
O=C(NCCO[N+](=O)[O-])c1cccnc1 | 4 | 3 | 1 | -19 | 15 | -9 | 23 | i
Cc1nnc(NC(=O)c2c(F)cccc2F)s1 | -7 | -4 | 4 | -17 | -7 | -9 | 6 | i
C=CCn1cc(F)c(=O)n(CC=C)c1=O | -5 | 3 | 6 | 7 | -10 | -6 | 3 | i
O[C@H]1CN(CC2CCCCC2)[C@@H](c2ccccc2)C[C@@H]1n1cc(C2CC2)nn1 | · | 0 | -3 | -7 | · | -14 | · | ·
Cc1cccc(OCC(=O)N=Nc2c(O)[nH]c3ccc([N+](=O)[O-])cc23)c1 | -13 | · | · | -2 | 1 | · | -1 | i
COC(=O)C1=C(C)N(c2cccc(C)c2)C(=O)/C1=C\c1cccs1 | -9 | -8 | 1 | · | -10 | -22 | 4 | i
CCCCCCOc1ccc(N2C(=O)CC(SCCN)C2=O)cc1 (stereo not drawn) | 0 | 1 | -1 | -194 | -10 | -17 | -5 | i
Cc1ccc(NC(=O)C2CC(=O)Nc3ncnn32)cc1Cl (stereo not drawn) | -12 | 3 | 3 | -9 | -9 | -6 | 8 | i
O=C(CCN1C(=O)c2ccccc2C1=O)Nc1sc2c(c1C(=O)NCc1ccco1)CCCC2 | · | -10 | 1 | 1 | 2 | -15 | 8 | i
Cc1cc(C(=O)CSc2cccc[n+]2[O-])c(C)n1-c1ccccc1 | 0 | 6 | -3 | 12 | -2 | · | 2 | i
O=C(NCCc1cccc(Cl)c1)c1cccc([N+](=O)[O-])c1 | · | 6 | -3 | -16 | -11 | · | -1 | i
CCOc1ccc(NC(=O)CCC(=O)c2ccc(OC)cc2)cc1 | -13 | 3 | -3 | -9 | 5 | -7 | -3 | i
CCCCN(CC)Cc1ccc(CNC(=O)Nc2ccc(F)cc2)o1 | 22 | -15 | 6 | ? | -4 | -17 | 7 | i
COc1ccc(-c2csc(C(C)(O)c3cccc(F)c3)n2)cc1 (stereo not drawn) | · | 1 | -13 | 16 | · | 0 | · | ·
COC(=O)C(CCSC)NC(=O)Cn1ncc2c(=O)oc3ccccc3c21 (stereo not drawn) | -15 | 3 | 7 | -74 | -8 | -9 | -8 | i
CCCCCCCc1c(O)nc(SCC(=O)O)[nH]c1=O | -8 | 1 | 3 | 1 | -1 | · | 2 | i
CC(=O)c1ccc(NC(=O)c2cc(Cl)sc2Cl)cc1 | -5 | 2 | 4 | -81 | -7 | · | 0 | i
CCS(=O)(=O)Nc1ccc(C2=NN(S(=O)(=O)c3ccc(F)cc3)C(c3ccco3)C2)cc1 (stereo not drawn) | -1 | · | · | -23 | 0 | · | 7 | i
Cc1c(C(=O)c2no[n+]([O-])c2C(=O)c2cnn(C)c2C)cnn1C | 69 | 7 | 11 | · | -4 | -9 | 0 | i
COc1ccc(/C=N/N2CCOCC2)cc1COc1ccc(F)cc1 | -4 | -2 | -2 | 12 | 3 | -5 | 3 | i
Cc1ccc(OCC(=O)N/N=C/c2ccncc2)cc1 | -1 | 2 | 0 | · | 9 | -22 | -3 | i
COc1ccccc1N1CCN(C(=O)c2oc3cc(C)c(C)cc3c2C)CC1 | · | -5 | -5 | · | 1 | 3 | 4 | i
Cc1ccccc1COc1ccc(-c2nn[nH]n2)cc1 | -10 | -6 | 0 | -9 | -14 | 2 | -1 | i
Cc1ccc2c(c1)N(CC(=O)NCC1CCCO1)C(=O)C(C)O2 (stereo not drawn) | -2 | 2 | 4 | 3 | 4 | -18 | -1 | i
Cc1c(Cl)cccc1-n1nnnc1-c1cccs1 | -8 | 1 | 3 | -87 | -6 | -11 | 15 | i
C/C(=N/N1CCN(Cc2cccc3ccccc23)CC1)c1ccco1 | 4 | 3 | 1 | 11 | 0 | · | -6 | i
COc1ccc(NC(=S)NC2CC3CCCC(C2)N3C2CC2)cc1 (stereo not drawn) | -7 | -2 | 3 | -5 | 2 | · | -3 | i
Nc1ccccc1SCc1cc([N+](=O)[O-])cc2c1OCOC2 | 8 | -1 | 4 | -20 | 3 | -4 | 6 | i
CCN(CC)CCn1c(NCc2cccc(OC)c2OC)nc2ccccc21 | -10 | 0 | 4 | · | -1 | -5 | -7 | i

The list goes on, overlapping the part above by two compounds.
SMILES | CSC inhib | MT1-MMP act inh | MT1-MMP act inh RFP | Env fusion inh | eIF4H inh | UUG fidelity | PABP FP inh | Rce1 inh | others
Nc1ccccc1SCc1cc([N+](=O)[O-])cc2c1OCOC2 | 8 | -1 | 4 | -20 | 3 | -4 | 6 | i
CCN(CC)CCn1c(NCc2cccc(OC)c2OC)nc2ccccc21 | -10 | 0 | 4 | · | -1 | -5 | -7 | i
CC(=O)/C(N=Nc1ccc2c(c1)OCCO2)=C(\C)O | 18 | 2 | 3 | -56 | -3 | · | 1 | i
CCCSc1nc(C)c(-c2csc(C(C#N)=C3CCCC3)n2)cc1C#N | 0 | -14 | -1 | · | 59* | · | 8.1* | i | eIF4H inh retest=70*;PABP FP inh retest=63*
Cc1ccc(NC(=O)CCC(=O)NNC(=O)NC23CC4CC(CC(C4)C2)C3)cc1C | -5 | 1 | -2 | 2 | -4 | · | -9 | i
CCc1ccc(N2CC(C(=O)Nc3cccc(C(=O)NC4CC4)c3)CC2=O)cc1 (stereo not drawn) | 3 | 11 | -4 | · | · | -8 | · | ·
CC(C)C(=O)Nc1ccc(NC(=O)c2ccc(COc3ccccc3)cc2)cc1 | -4 | -2 | -2 | -9 | 0 | -16 | 0 | i
COC(=O)c1c(C(=O)OC)c2c(-c3ccccc3)cc3cccc1n32 | · | -6 | -9 | 3 | · | -2 | · | ·
CC1CCCC(NC(=O)CCC(=O)NCc2ccccc2)C1C (stereo not drawn) | -2 | -1 | 3 | 11 | -5 | -8 | 4 | i
CCOC(=O)C1=C(O)/C(=C\c2cc(C)n(-c3ccccc3F)c2C)N=C1C | -10 | -12 | 3 | -1 | 45 | -28 | -9 | i
CCOC(=O)C1C(C(=O)OC)=C(c2ccc(OC)cc2)c2ccccc2N1S(=O)(=O)C(F)(F)F (stereo not drawn) | · | -1 | -1 | 11 | · | 0 | · | ·
CCOc1ccc([C@@H]2CC=C(C(=O)O)CN2S(=O)(=O)c2ccc(C)cc2)cc1 | -3 | 3 | 7 | -14 | · | -11 | · | ·
COc1ccc(NC(C)=O)cc1NC(C)C(=O)Nc1ccccc1F (stereo not drawn) | -10 | 0 | 5 | -3 | 0 | 5 | -2 | i
COc1cccc(N2CCN(C3C4CC5CC(C4)CC3C5)CC2)c1 (stereo not drawn) | 25 | 6 | 4 | · | -4 | -24 | 21 | i
Cc1cc(F)ccc1C(O)c1ncc(-c2cccc(F)c2)[nH]1 (stereo not drawn) | · | 0 | -6 | 8 | · | -7 | · | ·
c1cncc(-c2nc(NCc3ccc4c(c3)OCO4)c3ccccc3n2)c1 | 17 | -4 | -5 | 23 | 0 | · | 8 | i
COc1ccc(C(=O)OCc2ccccc2C#N)cc1S(=O)(=O)N1CCOCC1 | · | -4 | -3 | 8 | · | -16 | · | ·
CCc1ccc(NC(=O)C2C3CCC(O3)C2C(=O)O)cc1 (stereo not drawn) | 13 | 5 | 6 | -14 | 10 | 0 | 13 | i
COC(=O)C1=C(C(=O)OC)[C@@H]2N(C)c3ccc(OC)cc3[C@@]23C[C@@H](C(=O)OC)N(C(=O)c2ccco2)C3=N1 | · | -8 | 2 | -51 | · | -11 | · | i
N#CC(C#N)=C1CCCc2sccc21 | · | 0 | 4 | -21 | · | -9 | · | ·
COc1ccccc1CN1C[C@@H]2C[C@@H](C3=Cc4cc(Cl)ccc4OC3)N3CCC[C@@]23C1=O | 9 | -2 | 1 | 67* | 29 | · | 0 | i
CCc1ccccc1NC(=O)NCCN1CCCCC1 | 12 | 3 | 2 | 15 | -4 | -18 | -4 | i
COc1cc(OC)cc(-c2nc(-c3ccc(Br)cc3)no2)c1 | -1 | -9 | 1 | · | 7 | -30 | -8 | i
O=C(CN1CCN(C(=O)c2cncn2-c2ccc(F)cc2)CC1)Nc1ccccc1C(F)(F)F | -7 | -1 | -4 | · | · | -16 | · | ·
CCc1noc(C)c1C(=O)N1CCN(S(=O)(=O)c2ccccc2C(F)(F)F)CC1 | -16 | -3 | -1 | · | · | -4 | · | ·
CCC(C)NCCCOc1ccc(C)cc1OC (stereo not drawn) | 4 | 9 | 5 | 4 | -11 | · | 7 | i
Cc1ccc(C)c(OCCC(=O)OCC(=O)NC2CCS(=O)(=O)C2)c1 (stereo not drawn) | -7 | -3 | 4 | -20 | · | -10 | · | i
CNC(=S)N(CCc1c(C)[nH]c2ccc(C)cc12)Cc1ccc(OC)c(OC)c1 | -2 | -3 | -9 | -9 | -6 | -10 | 0 | i
COc1cccc(NC(=O)COc2cc(O)c3c(c2)OC(C)(C)CC3=O)c1 | -3 | 0 | -10 | · | -12 | 0 | 2 | i
CCC(/C=N/NC(=O)c1ccccc1F)CC | -4 | 1 | 4 | -12 | 8 | · | -4 | i
COc1ccc(N2Cc3cccc(C(=O)NC(C)CCc4ccco4)c3C2=O)cc1 (stereo not drawn) | -7 | -4 | 0 | 14 | 88* | -7 | 36* | i | eIF4H inh retest=80*;PABP FP inh retest=81*
CS(=O)(=O)N(CC(=O)N1CCOCC1)c1cc(Cl)ccc1Cl | -6 | 1 | 1 | -37 | 0 | 2 | 6 | i
O=C(O)c1ccccc1C(=O)NNc1ccc(F)cc1 | 42 | -8 | -2 | -8 | -4 | -23 | 4 | i
Cc1ccc(NC(=O)c2oc3ccccc3c2NC(=O)c2ccc3c(c2)OCO3)cc1 | 16 | 9 | 1 | -24 | -4 | -3 | 10 | i
COc1ccc(CNc2nccn3ccnc23)cc1 | · | 2 | 10 | -33 | · | -21 | · | ·
O=C(CCNS(=O)(=O)c1cccs1)Nc1nccs1 | -6 | -2 | 0 | -61 | -10 | -10 | 0 | i
Cc1ccc(NC2C(=O)NC(=O)NC2=O)cc1 | · | 0 | 6 | -7 | · | -14 | · | ·
COc1cccc(C2CC(=O)Nc3cc4c(cc32)OCCO4)c1OC(C)C (stereo not drawn) | 15 | 5 | -5 | -3 | -2 | 8 | -4 | ·
COc1ccc(NC(=O)C2=CC(c3cccs3)=NS(=O)(=O)N2C)cc1 | · | -9 | -9 | 89* | -5 | -3 | -1 | i
O=C(CSCCc1ccccn1)Nc1ccc(Br)cn1 | 7 | 1 | 1 | -50 | -3 | · | -2 | i
Cc1ccc(S(=O)(=O)N2[C@@H](c3cccc(C)c3)C(C(=O)O)=C[C@H]2CC2CCCC2)cc1 | · | 2 | -1 | -7 | · | 0 | · | ·
COCCCNC(=S)N(CCCO)Cc1cc2cc3c(cc2[nH]c1=O)OCO3 | -10 | -1 | 2 | -16 | 0 | -8 | 8 | ·
CC(=O)Nc1cccc(N/C=C(\C=O)c2nc3ccccc3o2)c1 | -12 | -1 | 4 | -45 | 5 | -9 | 11 | i
O=C(CSc1nnc(CCc2ccccc2)n1-c1ccc(Cl)cc1)NCc1ccccc1 | -13 | -9 | -10 | -9 | -12 | 0 | -2 | i
CC(C)Cc1nnc(NC(=O)CCC(=O)Nc2ccccc2)s1 | -1 | 1 | -2 | -6 | 6 | -12 | 1 | i
